# GIV Gai3 FP: inhibitors of GIV GBA-motif binding to rat Galpha-i3. P08753. Galpha-i3/FITC-GIV peptide fluorescence polarization, 90 min; stronger effect = lower value; scaled: aluminum fluoride 0%, vehicle 100%. percent of control (FP), % (test concentration not listed). hit rate 0.42% among 210,000;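 active = replicate mean at 85% of control or lower, very high polarization wells dropped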;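 note: wells of about 15 µL received 100 nL stock; the first replicate is given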
# Target sequence (P08753 whole entry, looked up): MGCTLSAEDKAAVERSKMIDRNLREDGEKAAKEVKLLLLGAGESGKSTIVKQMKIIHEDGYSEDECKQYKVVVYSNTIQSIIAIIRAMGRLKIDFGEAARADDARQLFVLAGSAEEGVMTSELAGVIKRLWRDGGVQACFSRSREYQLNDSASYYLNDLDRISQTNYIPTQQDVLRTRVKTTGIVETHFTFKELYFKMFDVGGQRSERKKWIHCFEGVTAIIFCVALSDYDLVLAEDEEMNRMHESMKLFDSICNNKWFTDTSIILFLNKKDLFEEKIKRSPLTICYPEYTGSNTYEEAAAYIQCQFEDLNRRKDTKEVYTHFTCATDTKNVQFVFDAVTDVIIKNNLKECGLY
# * hit, by the source's call. Some of the compounds tested (hit frequency here may not be typical).
SMILES,GIV Gai3 FP
CCCc1cc(C2CCCN2S(C)(=O)=O)no1 (centres undefined),98.8
Cc1cccc(NC(=O)CSc2ncnc3c(-c4ccccc4)c[nH]c23)c1,103.0
COc1ccc(C2/C(=C(/O)c3ccc([N+](=O)[O-])cc3)C(=O)C(=O)N2c2ccccc2)cc1OC (centres undefined),106.4
O=c1[nH]c(N2CCc3ccccc3C2)nc2c(-c3ccccc3)csc12,105.1
CCCc1cc(C2CCCN2C(=O)c2c(C)noc2C)no1 (centres undefined),98.8
O=C(Nc1ccc2c(c1)OCO2)c1ccc(-c2cc(NC3CCCCC3)ncn2)cc1,102.7
COc1ccc(C2C=C(Nc3ccc(C)cc3)C(=O)N2c2ccc(C)cc2)cc1 (centres undefined),109.8
Cc1ccc(CNS(=O)(=O)c2cc(-c3nc(C(C)(C)C)cs3)cs2)cc1C,102.1
Cc1cc2c(cc1C)N(C(=O)c1cccc(F)c1)C(C)(C)c1ssc(=S)c1-2,116.9
O=C1c2ccccc2NC(c2cccc(Br)c2)N1c1ccc(I)cc1 (centres undefined),106.3
COc1ccc(C2Sc3ccccc3NC3=C2C(=O)c2ccccc23)cc1 (centres undefined),116.1
CCS(=O)CCSc1nc(-c2ccccc2)cc(-c2ccccc2)c1C#N (centres undefined),103.4
Cc1ccc(-c2nccc(Oc3ccc(C(=O)NCc4ccc(Br)cc4)cc3)n2)cc1,104.3
CCOc1cccc2c1OC(c1ccc(SC)cc1)N1N=C(c3cccs3)CC21 (centres undefined),103.2
CCOC(=O)c1cnn(-c2ccc(C(=O)N3CCN(c4cccc(OC)c4)CC3)cc2)c1N,104.8
O=C1NC2NC(=O)N(C3CCCCC3)C2N1 (centres undefined),111.1
Fc1c(F)c(F)c(C2Nc3cccc4cccc(c34)N2)c(F)c1F,110.4
O=C1C2N=NN(c3ccc(F)cc3)C2C(=O)N1c1cccc(F)c1 (centres undefined),106.3
O=C(Cn1nc2c3sc(N4CCCCC4)nc3ncn2c1=O)Nc1ccc2c(c1)CCC2,101.8
O=C(Cn1ncc2c(c1=O)N(C1CC1)C(=O)CS2)NCCC1=CCCCC1,103.0
CCC(=O)Nc1cccc(-c2noc(C3CCN(C(=O)c4cccc(NC(C)=O)c4C)CC3)n2)c1,102.1
Brc1ccc(-c2cn3nc(-c4ccccc4)c(-c4ccccc4)nc3n2)cc1,143.5
CC1(C)CC(=O)C2=C(C1)N=C1c3ccccc3C(=O)C1C2c1cc(Br)ccc1O (centres undefined),107.4
CCOc1ccc2cc(-c3cc4c(c(C)n3)c(=O)oc3cc(OCC)ccc34)c(=O)oc2c1,110.4
Cc1cc(N(C)C)nc(Nc2ccc(NS(=O)(=O)c3ccc(Br)cc3)cc2)n1,107.1
# Next records follow.
SMILES,GIV Gai3 FP
CC(=O)Nc1cccc(-c2nc(-c3ccc(NS(C)(=O)=O)cc3)no2)c1C,96.9
COc1ccc(Nc2nc(Cl)nc(NCc3ccco3)n2)c(OC)c1,109.9
N#CC1=CN(c2ccccc2)c2ccccc2S1(=O)=O,101.4
Cc1ccccc1N1CCN(S(=O)(=O)c2cc(-c3nnc(C4CCC4)o3)co2)CC1,102.9
CCS(=O)(=O)NC1CCN(C(=O)C2CC2)C1 (centres undefined),102.6
CC(=O)[C@@H]1[C@@H](c2ccccc2F)C(C#N)(C#N)[C@H]2C=Cc3ccccc3N12,108.0
O=C(CCl)Nc1ccc(-c2nc(-c3ccccc3)c3cc(NC(=O)CCl)ccc3n2)cc1,109.7
Cc1c(Cl)cccc1N1C(=O)C(N2C(=O)c3ccc([N+](=O)[O-])cc3C2=O)C1c1cccc(F)c1 (centres undefined),116.5
COc1ccc(CCn2c(-c3ccc(Br)cc3)csc2=Nc2ccc(F)cc2)cc1,117.0
Cc1ccc(-c2noc(C3CC3)n2)cc1S(=O)(=O)Nc1ccc(Br)cc1F,98.6
CCSc1nc2c(s1)c(=O)n(-c1ccccc1)c(=O)n2CC(=O)NC1CCCCC1,103.0
CN(C)c1ccc(-c2nc3cnc(Br)cn3c2Nc2ccc3c(c2)OCCO3)cc1,119.6
CCCS(=O)(=O)c1c(S(=O)(=O)CCC)c2cc(-c3ccncc3)ccn2c1C(=O)c1ccccc1,98.0
O=C(NCc1ccc(F)cc1F)C1CCN(c2ncnc3c2oc2ccccc23)CC1,108.5
CC(=O)Nc1ccc(S(=O)(=O)Nc2cccc(-c3ccc4cc(C(C)C)ccc4n3)c2)cc1,98.7
CN(C(=O)CCc1nc(-c2ccc(S(=O)(=O)N3CCCCC3)cc2)no1)C1CCCCC1,105.9
COc1cccc2c1OC1(C=C2)N(C)c2ccccc2C1(C)C (centres undefined),109.8
CC1CCN(CC(=O)N2c3ccccc3C(C)(c3ccc(Cl)cc3)CC2(C)C)CC1 (centres undefined),112.6
Cc1cc(C)n(-c2cc(NCc3ccc(Br)cc3)ncn2)n1,110.0
COc1ccc(CNc2c(C(=O)Nc3cccc(C)c3C)cnc3c2c(C)nn3-c2ccccc2)cc1,102.6
CCOC(=O)C1=C(c2ccccc2)OC(N)=C(C#N)C1c1ccc(Cl)c([N+](=O)[O-])c1 (centres undefined),108.1
Ic1cccc(-c2nc(-c3ccc(C#Cc4ccccc4)cc3)c(-c3ccc(C#Cc4ccccc4)cc3)[nH]2)c1,114.2
CCSc1nnc(-c2nn(C)c3c2CN(S(=O)(=O)c2c(C)n[nH]c2C)CC3)n1CC,102.9
CN1CCN(CCNC(=O)c2cc3n(n2)CCCC3)CC1,99.1
COc1cc(C2Nc3ccc4ncccc4c3C3=C2C(=O)CCC3)cc(OC)c1OC (centres undefined),104.6
# Next part
SMILES,GIV Gai3 FP
COc1ccc(Nc2nc(-c3ccccc3O)nc3ccccc23)c(OC)c1,104.2
COc1ccc(NC(=O)CSc2nnc(C(C)N3C(=O)COc4ccccc43)n2C)cc1 (centres undefined),99.7
O=C(Nc1cccc(C(F)(F)F)c1)c1c[nH]c2ccc(S(=O)(=O)N3CCc4ccccc4C3)cc2c1=O,107.8
O=C(c1ccccc1)N1CCN(CC(O)Cn2c3ccccc3c3ccccc32)CC1 (centres undefined),108.9
COC(=O)C1=CN(C2CC2)c2cc(N3CCOCC3)c(F)cc2S1(=O)=O,98.6
c1cc2c(cc1Nc1nc3nonc3nc1Nc1ccc3c(c1)OCO3)OCO2,111.6
Cc1ccc(-c2[nH]c(-c3ccc(-c4ccccc4)cc3)nc2-c2ccccc2)cc1,110.6
O=[N+]([O-])c1cccc(C2(O)CN(c3ccccc3)C3=[N+]2CCCS3)c1 (centres undefined),101.7
CC(C)C(=O)NCc1csc(C2CCCN(C(=O)C(C)C)C2)n1 (centres undefined),102.2
Brc1ccc(CSc2nnc(-c3ccccc3)c(-c3ccccc3)n2)cc1,109.7
CCOC(=O)c1cnc(Nc2ccc(OC)cc2OC)c2ccccc12,109.5
Cc1nc(CNC(=O)[C@H]2CSCN2C(=O)Nc2ccc(F)c(Cl)c2)cs1,100.9
COC(=O)CN1C(c2ccccc2Cl)=Nc2ccc(Br)cc2C1c1ccccc1 (centres undefined),109.9
CC1(C)CC(=O)C2=C(C1)OC1=C(C(=O)CC(C)(C)C1)C2c1c(O)ccc2ccccc12,104.2
Cc1cc(C)c(S(=O)(=O)Cc2nc(-c3ccccc3)no2)c(C)c1,101.8
COc1cc(NC(=O)CSc2nccnc2N2CCSCC2)cc(OC)c1,106.0
O=C(Nc1sc2c(c1C(=O)Nc1ccc(Br)cc1)CCCCC2)c1ccccc1Cl,115.3
O=c1ccc(-c2ccc3c(c2)OCO3)nn1CCc1nc(-c2ccccc2Br)no1,103.3
Cc1cccc(-n2nnnc2C2(N(C)C=O)CCCCC2)c1,111.8
CCn1c(SCC(=O)Nc2ccc(OC)cc2)nnc1-c1cn(C)nc1-c1ccc(Cl)cc1,102.4
Cc1cc(C)c(C#N)c(SCC(O)COc2ccc(C(C)(C)C)cc2)n1 (centres undefined),100.5
O=C1S/C(=C/c2ccccc2F)C(=O)N1CCN=C1NS(=O)(=O)c2ccccc21,98.7
O=C(CSc1nc2ccccc2c(=O)n1CCCC(=O)N1CCN(c2ccccc2)CC1)NC1CCCCC1,113.7
O=C1N(Cc2c(Cl)cccc2Cl)c2ccccc2C12NN=C(c1ccccc1)S2 (centres undefined),104.2
COc1cccc2c1N(C(=O)c1ccc(Br)cc1)C(C)(C)c1ssc(=S)c1-2,118.7

# Some of these compounds in order of length of the SMILES, lowest first.
SMILES,GIV Gai3 FP
Cc1cccc(-n2nnnc2C2(N(C)C=O)CCCCC2)c1,111.8
CCOC(=O)c1cnc(Nc2ccc(OC)cc2OC)c2ccccc12,109.5
CC(C)C(=O)NCc1csc(C2CCCN(C(=O)C(C)C)C2)n1 (centres undefined),102.2
COc1ccc(Nc2nc(-c3ccccc3O)nc3ccccc23)c(OC)c1,104.2
Brc1ccc(CSc2nnc(-c3ccccc3)c(-c3ccccc3)n2)cc1,109.7
Cc1cc(C)c(S(=O)(=O)Cc2nc(-c3ccccc3)no2)c(C)c1,101.8
COC(=O)CN1C(c2ccccc2Cl)=Nc2ccc(Br)cc2C1c1ccccc1 (centres undefined),109.9
COC(=O)C1=CN(C2CC2)c2cc(N3CCOCC3)c(F)cc2S1(=O)=O,98.6
O=C1N(Cc2c(Cl)cccc2Cl)c2ccccc2C12NN=C(c1ccccc1)S2 (centres undefined),104.2
O=c1ccc(-c2ccc3c(c2)OCO3)nn1CCc1nc(-c2ccccc2Br)no1,103.3
COc1cccc2c1N(C(=O)c1ccc(Br)cc1)C(C)(C)c1ssc(=S)c1-2,118.7
COc1ccc(NC(=O)CSc2nnc(C(C)N3C(=O)COc4ccccc43)n2C)cc1 (centres undefined),99.7
O=C(CSc1nc2ccccc2c(=O)n1CCCC(=O)N1CCN(c2ccccc2)CC1)NC1CCCCC1,113.7
CC1(C)CC(=O)C2=C(C1)OC1=C(C(=O)CC(C)(C)C1)C2c1c(O)ccc2ccccc12,104.2
O=C(Nc1cccc(C(F)(F)F)c1)c1c[nH]c2ccc(S(=O)(=O)N3CCc4ccccc4C3)cc2c1=O,107.8

# Next section:
SMILES,GIV Gai3 FP
CC(C)(C)C(=O)C1C(c2ccc(C(F)(F)F)cc2)C(C#N)(C#N)C2C=Cc3ccccc3N12 (centres undefined),121.2
COc1ccccc1C(=O)N1c2ccccc2Sc2ccc(C(F)(F)F)cc21,108.7
Cc1nc(N2CCN(C)CC2)c2c(C)c(C(=O)NCc3ccc(F)cc3)sc2n1,100.7
Cc1ccc(-c2csc(C(C#N)=C3CCCCC3)n2)cc1,111.0
CCc1c(C)nc2ncnn2c1N1CCN(C(C)C)CC1,96.5
CCOc1cc(C2C(C(=O)OCCSCC)=C(C)NC3=C2C(=O)CC(C)(C)C3)cc(Cl)c1O (centres undefined),99.2
CCCS(=O)(=O)n1c(SCC(=O)Nc2cc(Cl)ccc2OC)nc2ccccc21,111.3
Cc1ccc(-c2n[nH]c3c2C(c2ccc(F)cc2)N(c2ccccc2)C3=O)cc1 (centres undefined),109.8
Cc1ccc(C2CC(C(F)(F)F)n3ncc(C(=O)NCCc4c[nH]c5ccccc45)c3N2)cc1 (centres undefined),113.0
CCOC(=O)C1CCN(c2ncc(S(=O)(=O)c3ccccc3)c(N)n2)CC1,105.3
O=S(=O)(NCc1nc2cccnc2n1C1CC1)c1ccc(F)cc1,105.2
CC1=C(C(=O)OCCc2ccccc2)C(c2cccc([N+](=O)[O-])c2)C2=C(CC(c3cccs3)CC2=O)N1 (centres undefined),115.0
COc1ccc2c(c1)NC1(CCN(C(=O)Nc3cc(F)ccc3F)CC1)c1cccn1-2,105.2
C=CCOc1ccccc1C=Nc1c(C)n(C)n(-c2ccccc2)c1=O,117.5
Cc1cc(C)cc(NS(=O)(=O)c2cc(-c3nc(C(C)C)cs3)cs2)c1,99.0
CCOC(=O)c1c(NC(=O)CSc2nnc(CNC(=O)c3cccc(C)c3)n2C)sc2c1CCC2,108.1
CCNc1cc(C)nc(Nc2ccc(NC(=O)CC(C)(C)C)cc2)n1,104.4
Cc1onc(-c2ccc(F)cc2F)c1C(=O)N1CCN(C2CCCCC2)CC1,111.3
COc1cc(OC)c(NC(=O)CSc2nc3[nH]ncc3c(=O)n2-c2cccc(C(F)(F)F)c2)cc1Cl,107.0
CC1CCc2oc3ccc(NS(=O)(=O)c4ccccc4)cc3c2C1 (centres undefined),105.4
CCOc1ccc(-n2nnc3c(N4CCN(C(=O)CCC5CCCCC5)CC4)ncnc32)cc1,98.8
Cc1nn(-c2nc3ccc(Br)cc3s2)c2c1C(c1c(F)cccc1Cl)CC(=O)N2 (centres undefined),97.8
COC(=O)C1=C(C(=O)OC)SC(=C2C(=S)C(C)(C)N(C(=O)c3ccc(-c4ccccc4)cc3)c3cc(C)c(C)cc32)S1,104.0
O=S(=O)(c1ccc(F)c(F)c1)N1CCc2nc[nH]c2C1,95.3
CC1CCN(C(=O)CSc2n[nH]c(N)n2)CC1,101.2
# More records:
SMILES,GIV Gai3 FP
CCOC(=O)C1CCN(S(=O)(=O)c2cccc3nsnc23)CC1,108.0
O=C(Nc1ccc(F)cc1)c1cc(S(=O)(=O)NCCc2ccc(Cl)cc2)ccc1F,111.5
CC(C)Oc1ccc(CNCCC2(c3ccccc3)CCOC(C)(C)C2)cc1 (centres undefined),98.2
CCOC(=O)c1cc2c(c(CSc3nc4cc(C(=O)NCCOC)ccc4c(=O)n3Cc3ccco3)c1)OCOC2,119.4
O=[N+]([O-])c1ccc(O)c(-c2nc(-c3ccccc3)c(-c3ccc(Cl)cc3)[nH]2)c1,108.5
C1=CC2c3cccc4c3N(CC2C1)CC1CC=CC41 (centres undefined),113.2
CCC(=O)NC1CCN(C(=O)C2CCCC2)C1 (centres undefined),99.3
COc1cccc(NC(=O)c2ccc(-c3nc(-c4ccccc4)no3)cc2)c1,98.6
COC(=O)c1ccc2c(c1)N(Cc1ccccc1)C(=O)CS2,96.8
COc1cc2c(cc1OC)C(C(C)C)=NC(C)(C)C2,111.7
CCC(C)NC(=O)Cn1cnc2nc(N3CCCC(C(=O)NC(C)C)C3)sc2c1=O (centres undefined),103.7
COCCNC(=O)c1ccc2c(=O)n(Cc3ccco3)c(SCC(=O)Nc3ccc(OC)cc3OC)nc2c1,118.1

# From PubChem
